Arbovirus inh: antivirals against arbovirus infection, primary screen, cell-based, full library, 10K replicate subset; arbovirus infection cell-based antiviral screen; inhibition, % at 10 µM; 0.37% of 200,000 active;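 active means inhibition from about 30%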;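 further: bluetongue infection of BSR cells; cell survival read as ATP light after 72 h; 0% = infected wells without compound and 100% = uninfected wells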
YopH PTP inh: YopH tyrosine phosphatase inhibitors, primary screen, biochemical, fluorescence Ex485/Em525; inhibition, %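 (about 10 µM by stock and volumes)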; 0.16% of 140,000 active; YopH tyrosine phosphatase [Yersinia enterocolitica];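 active means inhibition of 50% or more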;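 further: controls were vehicle for no effect and minimum signal wells for full effect; inactives centre near -20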
Mtb growth: M. tuberculosis H37Rv growth inhibitors, H37Rv strain (AID 1626) | M. tuberculosis H37Rv growth inhibition; higher % means a stronger effect | inhibition, % at 10 µM, or IC50 in µM where a hit was titrated | 0.95% of 220,000 active;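 active means confirmed in a dose series; inconclusive means inhibition above 80% but not taken into the dose series; inactive means below 80% or under 30% at every dose of the series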;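 further: bacteria incubated seven days before Alamar blue readout; 0% = bacteria only wells and 100% = bacteria with antibiotic wells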
Mtb bLac sens: beta-lactam sensitization of Mtb H37Rv, H37Rv | M. tuberculosis H37Rv growth with meropenem, percent inhibition; hits of this screen are not shown here | 0.27% of 330,000 active | inhibition, % at 25 µM;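 active means about 74% or more and at least 40 points above the plate without the antibiotic, then above 30% in a dose series; inconclusive means first-round hits that could not be retested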;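 further: growth measured after seven days incubation then overnight dye step; 0% = bacteria only wells and 100% = bacteria with antibiotic; twin plates without the antibiotic show which effects depend on it; some results filed as inactive read as strong as hits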
RecA splice inh: Mtb RecA intein splicing inhibitors, primary screen, biochemical, fluorescence, HTS; 0.75% of 290,000 active; AID 2221, 2009; Protein RecA (Mycobacterium tuberculosis (strain ATCC 25618 / H37Rv)), P9WHJ3; inhibition, %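 (about 9 µM by stock and volumes)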; cell-free RecA intein splicing; in the data active means inhibition above about 30%; inconclusive means no clear call, values can overlap the other calls;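 further: 0% = vehicle wells and 100% = reference inhibitor control wells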
Target sequence (P9WHJ3 whole entry, looked up, canonical isoform): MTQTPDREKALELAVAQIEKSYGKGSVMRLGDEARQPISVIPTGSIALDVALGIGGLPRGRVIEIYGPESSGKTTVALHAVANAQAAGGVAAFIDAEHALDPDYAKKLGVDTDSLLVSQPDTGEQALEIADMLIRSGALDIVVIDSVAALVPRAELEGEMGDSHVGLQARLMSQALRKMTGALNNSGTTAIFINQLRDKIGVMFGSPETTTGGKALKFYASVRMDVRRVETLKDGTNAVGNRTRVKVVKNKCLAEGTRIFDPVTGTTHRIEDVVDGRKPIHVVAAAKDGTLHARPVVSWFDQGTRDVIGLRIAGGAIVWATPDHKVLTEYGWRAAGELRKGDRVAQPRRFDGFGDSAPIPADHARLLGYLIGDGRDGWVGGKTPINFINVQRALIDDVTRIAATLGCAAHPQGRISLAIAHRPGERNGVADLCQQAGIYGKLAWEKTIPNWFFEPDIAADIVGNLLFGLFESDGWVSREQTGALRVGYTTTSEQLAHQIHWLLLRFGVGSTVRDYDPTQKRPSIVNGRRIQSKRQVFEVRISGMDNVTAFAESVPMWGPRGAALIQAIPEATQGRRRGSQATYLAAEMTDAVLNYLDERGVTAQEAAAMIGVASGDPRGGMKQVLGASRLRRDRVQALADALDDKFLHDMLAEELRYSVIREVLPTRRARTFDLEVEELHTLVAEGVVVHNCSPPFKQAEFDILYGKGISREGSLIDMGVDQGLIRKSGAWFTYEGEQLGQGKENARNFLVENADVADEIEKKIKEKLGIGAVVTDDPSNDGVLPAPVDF
Arbovirus inh repeat: second read-out of Arbovirus inh, no call of its own (marks repeat the call); inhibition, %; measured here: 10K subset replicate screen; many hits read low in the repeat;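 first of two repeat runs on a subset; 0% = infected and 100% = uninfected wells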
An asterisk follows results filed as active; ? = inconclusive; · = not tested or not shown.

SMILES	Arbovirus inh	YopH PTP inh	Mtb growth	Mtb bLac sens	RecA splice inh	others
C=CCn1c(N)cc(=O)nc1SCC(=O)Nc1ccc(C(=O)OC)cc1	·	·	·	-22.1	-2.4
CCOc1ccc(CCNC(=O)C(CC)n2nc(C)n3c(cc4sccc43)c2=O)cc1OCC (stereo unspecified)	4.7	-9.2	8.1%	-0.4	-0.6
COc1cc(CNC(=O)c2ccccc2NC(=O)C2=C(C)OCCS2)cc(OC)c1OC	·	·	·	-3.7	-2.7
O=C(NNC(=O)c1cccc(Br)c1)C(=O)N1CCCCC1	5.1	-15.5	4.5%	-0.2	-1.2
Cc1ccc(NS(=O)(=O)c2ccc(C(=O)N3CCN(S(=O)(=O)c4ccccc4)CC3)cc2)cc1	·	·	·	-4.8	5.4
CN(C)/N=C/c1cn(-c2ccccc2)nc1-c1cccnc1	-5.2	·	6.6%	-0.2	-1.3
COCCNC(=O)c1ccc2c3n(nc2c1)-c1ccccc1CO3	·	·	-5.7%	-0.6	-2.7
S=c1[nH]nc(-c2ccc(Br)cc2)n1Cc1ccccc1	5.8	·	0.9%	5.6	2.8
COc1ccc(/C=N/N(CCC(=O)NC(C)(C)C)C2=NS(=O)(=O)c3ccccc32)cc1	·	·	·	8.3	-55.5
CC(NC(=O)C1CCN(C(=O)[C@@H]2Cc3ccccc3CN2C(=O)OC(C)(C)C)CC1)c1ccccc1 (stereo partly specified)	·	·	·	0.3	-2.1
COc1ccc(-c2ccc(SCC(=O)c3cccs3)nn2)cc1	-19.6	·	7.5%	-2.5	-1.3
O=C(CSc1nnc(-c2cccnc2)n1Cc1ccco1)c1ccc(Cl)c(Cl)c1	14.4	-35.7	-15.4%	7.6	8.0

Random excerpt: 2 records from the list.
SMILES	Arbovirus inh	YopH PTP inh	Mtb growth	Mtb bLac sens	RecA splice inh	others
COc1ccc(/C=N/N(CCC(=O)NC(C)(C)C)C2=NS(=O)(=O)c3ccccc32)cc1	·	·	·	8.3	-55.5
O=C(NNC(=O)c1cccc(Br)c1)C(=O)N1CCCCC1	5.1	-15.5	4.5%	-0.2	-1.2

More entries follow.
SMILES	Arbovirus inh	YopH PTP inh	Mtb growth	Mtb bLac sens	RecA splice inh	others
Cc1cccc(NC(=S)N2CCN(S(=O)(=O)c3cccc(F)c3)CC2)c1	10.4	·	-2.7%	4.8	2.4
Cc1csc(NC(=O)c2cc3c(s2)CCCC3)n1	-8.8	-108.8	11.5%	-1.6	5.0
CCSc1nc2c(c(=O)[nH]1)C(C(C)C)C(C#N)=C(N)O2 (stereo unspecified)	8.6	-52.5	-7.3%	3.1	1.1	Arbovirus inh repeat=2.3
Cn1cc(C(=O)N/N=C/C2=C(N3CCOCC3)C(=C/c3ccc([N+](=O)[O-])cc3)/CC2)ccc1=O	·	·	·	6.2	0.0
O=C(COc1coc(CN2CCc3ccccc32)cc1=O)N1CCCCC1	·	·	·	-5.4	-2.9
CC(C)(NC(=O)N1CCCC1)c1cccc(C(C)(C)NC(=O)N2CCCC2)c1	9.5	-40.6	-6.6%	-4.0	0.4	Arbovirus inh repeat=9.5
CC(C)NC(=O)CN(c1cccc(Br)c1)S(C)(=O)=O	0.8	-19.2	1.4%	-2.6	·
COc1cccc(CC(=O)Nc2nc3ccccc3[nH]2)c1	0.2	·	-0.5%	-1.9	2.6
O=C(Nc1cccc(Cl)c1)Nc1ccccc1C(=O)O	·	·	0.7%	-8.6	1.8
Nc1nonc1-n1nnc(C(=O)N/N=C/c2cccnc2)c1-c1ccccc1	·	·	·	-3.5	-3.8
O=C(N/N=C/c1cccs1)c1cc(-c2ccc3ccccc3c2)n[nH]1	0.7	-4.3	47.5%	-0.5	1.0
COc1cc(OC)cc(C(=O)N[C@H](C(=O)Nc2cc(F)ccc2C)C(C)C)c1	·	·	·	3.0	-0.3
COC(=O)c1ccc(OC)c(CN2CCCN(Cc3ccc(F)cc3)S2(=O)=O)c1	·	·	·	10.1	-6.1
Cc1nc2sc(C(c3ccco3)N3CC(C)OC(C)C3)c(O)n2n1 (stereo unspecified)	4.9	-51.6	·	-9.9	-0.8
O=C(NC(=O)c1c(F)cccc1F)Nc1cc(Cl)c(F)c(Cl)c1F	·	·	7.5%	-0.5	2.9
O=C(CS(=O)(=O)Cc1ccccc1)Nc1ccc(S(=O)(=O)N2CCOCC2)cc1	7.3	-27.5	0.8%	-1.2	0.7
c1ccc(-c2ccccc2OCCCN2CCCC2)cc1	-19.5	-10.7	-2.0%	-8.8	0.8
Cc1ccc(CS(=O)Cc2ccc(C(=O)NC3CCCC(C)C3C)o2)cc1 (stereo unspecified)	·	·	·	0.7	0.1
CCCCNS(=O)(=O)c1ccc2nc(-c3cccnc3)cc(C(=O)NCCCN(CC)CC)c2c1	-1.6	·	-1.2%	11.3	-1.2
O=C(CSc1nnc(-c2cccs2)n1Cc1ccco1)Nc1ccc2c(c1)OCO2	0.6	-30.8	-8.1%	-13.1	0.4
Cc1nn(C2CCOC(C)(C)C2)c2c1C(c1ccc(OC(C)C)cc1)SCC(=O)N2 (stereo unspecified)	-5.0	-31.5	4.9%	2.6	2.9
O=C(Nc1cccnc1)c1ccc(CSc2ccccc2)cc1	-18.9	·	0.5%	34.7	0.6
C=C1CCC(O)C2(C)CCC3C(C)C(=O)OC3C12O (stereo unspecified)	·	·	·	0.8	2.8
c1ccc(CCn2nnnc2C(c2cccnc2)N2CCN(c3nc4ccccc4s3)CC2)cc1 (stereo unspecified)	-2.9	-42.0	61.0%	-0.7	6.8
COc1ccc(CNC(=O)/C=C/c2cc([N+](=O)[O-])ccc2OC(F)F)cc1	8.3	-16.5	-3.4%	-5.5	-1.6
O=[N+]([O-])c1ccc(NC(=S)N2CCc3ccccc3C2)cc1	1.3	0.6	7.2%	-3.7	7.9
COC(=O)CNC(=O)C(Cc1c[nH]c2ccccc12)NC(=O)Oc1ccccc1 (stereo unspecified)	·	·	-25.4%	35.2	-2.5
C=C(C)C1(O)OC(=O)C=C1OC (stereo unspecified)	10.4	·	-5.1%	-5.6	-3.0
O=C(Cc1ccc([N+](=O)[O-])cc1)N/N=C/c1ccc([N+](=O)[O-])o1	-13.2	·	?	99.6	-4.4
CCOc1ccc(-n2cnnn2)cc1S(=O)(=O)NC1CC1	-4.7	-9.9	-4.0%	-1.4	0.0
C=C(c1ccccc1O)n1ccnc1	·	·	·	0.9	-0.5
Cc1ccc(C)n1-c1ccc(-c2nnco2)cc1	-2.2	-29.0	-6.6%	2.8	0.1
COc1cc(C(C)=O)ccc1OCC(=O)Nc1ccccc1N1CCCCC1	·	·	·	5.9	3.6
Cn1c(/C=C/N2CCOCC2)c(C(=O)c2ccc(Br)cc2)c(=O)n(C)c1=O	10.2	-2.1	-16.2%	5.2	2.1
CCC(=O)c1ccc(SC(=O)N(C)C)cc1O	·	·	0.5%	-8.4	1.2
O=C(Nc1ccc2c(c1)OCO2)c1ccc(S(=O)(=O)NCC2CCCO2)cc1 (stereo unspecified)	1.6	-18.9	2.4%	-17.2	-1.0
CCN(C(=O)COC(=O)c1cc(OC)c(OC)cc1[N+](=O)[O-])C1CCS(=O)(=O)C1 (stereo unspecified)	3.0	·	2.5%	-5.9	5.4
CCOc1ccc(NC(=O)Nc2ccc(N(C)C(C)=O)cc2)cc1	4.1	-25.6	-2.6%	0.6	0.8
CC(Oc1ccc2c3c(c(=O)oc2c1)CCCC3)C(=O)NCc1ccncc1 (stereo unspecified)	·	·	·	4.8	1.4
C=CCNC(=S)N/N=C/c1ccc(C)s1	·	·	3.3%	-1.2	2.4
C#CCn1c2ccccc2c2nc3ccccc3nc21	·	·	·	4.1	-7.5
COc1ccccc1-c1nc2ccccc2c(=O)n1NC(=O)c1cccs1	2.9	-28.2	0.3%	9.7	1.5
CC(=O)c1cccc(NC(=O)c2ccc(N(Cc3ccc(C)cc3)S(C)(=O)=O)cc2)c1	-1.3	-18.9	1.7%	-9.1	1.6
Cc1ccc(CN2CCC(n3nccc3NC(=O)c3ccccc3C)CC2)o1	·	·	·	-10.9	-3.4
Nc1nc(NCc2ccco2)nc(Nc2ccc(F)cc2)c1[N+](=O)[O-]	·	·	6.6%	-4.0	0.1
O=S(=O)(NCC(c1ccco1)N1CCN(c2ccccc2F)CC1)c1ccc2c(c1)OCCO2 (stereo unspecified)	7.8	-5.6	3.4%	-1.2	3.7
CCOC(=O)c1c(-c2ccccc2)[nH]c2ccc(O)cc12	-1.1	33.6	-1.4%	3.0	2.7
CCOc1ccc2c(c1)c(=O)c(S(=O)(=O)c1ccc(C)cc1)cn2CC	·	·	·	-4.6	-1.2
COc1ccc(N2C(=O)c3ccccc3NC2(C)C)cc1	3.1	·	0.2%	1.1	-1.3
Cc1cccc([N+](=O)[O-])c1NC(=O)CN(Cc1ccccc1)Cc1ccccc1	-1.3	-32.2	-0.7%	8.7	-8.1
CC(C)(C)c1ccc(/C=C/C(=O)N2CCOCC2)cc1	-1.6	-18.6	3.0%	4.5	-2.2
C[C@H]1CN(C2CCCCC2)C(=O)[C@@H]1CC(=O)NCc1ccccc1	·	·	·	-4.7	-6.5
COc1ccc(OC)c(Nc2nc(N)nc(CSc3nnc(-c4ccncc4)o3)n2)c1	1.0	5.1	·	-20.7	-1.2
Cc1ccc(-n2nc3c([n+]2[O-])CCc2nonc2-3)cc1	-2.3	·	5.0%	0.8	-0.6
Nc1c(O)cccc1C(=O)O	·	·	-4.8%	-1.5	71.5*
COC(=O)CC(=O)Cc1nc(N)nc(Nc2ccc(C)c(C)c2)n1	2.9	-27.8	-3.8%	-0.7	0.4
CCCCNS(=O)(=O)c1ccc(OCC(=O)OC)cc1	6.7	-17.2	3.6%	1.6	0.5
Cc1ccc(S(=O)(=O)N2CCC(C(=O)OCC(=O)N(C)CC(=O)Nc3ccc(F)cc3)CC2)cc1C	·	·	·	-9.3	-0.2
CCc1ccc(OCC(=O)NC(=S)Nc2ccc(C)cc2C)c(Br)c1	-6.2	11.8	-1.3%	0.7	7.0
Cc1c(-c2ccccc2)n[nH]c1C(=O)N=Nc1c(O)[nH]c2ccccc12	5.2	·	2.6%	4.5	-8.3

By substructure, the entries above containing a furan ring, fused or not (8)
SMILES	Arbovirus inh	YopH PTP inh	Mtb growth	Mtb bLac sens	RecA splice inh	others
O=C(CSc1nnc(-c2cccnc2)n1Cc1ccco1)c1ccc(Cl)c(Cl)c1	14.4	-35.7	-15.4%	7.6	8.0
Cc1nc2sc(C(c3ccco3)N3CC(C)OC(C)C3)c(O)n2n1 (stereo unspecified)	4.9	-51.6	·	-9.9	-0.8
Cc1ccc(CS(=O)Cc2ccc(C(=O)NC3CCCC(C)C3C)o2)cc1 (stereo unspecified)	·	·	·	0.7	0.1
O=C(CSc1nnc(-c2cccs2)n1Cc1ccco1)Nc1ccc2c(c1)OCO2	0.6	-30.8	-8.1%	-13.1	0.4
O=C(Cc1ccc([N+](=O)[O-])cc1)N/N=C/c1ccc([N+](=O)[O-])o1	-13.2	·	?	99.6	-4.4
Cc1ccc(CN2CCC(n3nccc3NC(=O)c3ccccc3C)CC2)o1	·	·	·	-10.9	-3.4
Nc1nc(NCc2ccco2)nc(Nc2ccc(F)cc2)c1[N+](=O)[O-]	·	·	6.6%	-4.0	0.1
O=S(=O)(NCC(c1ccco1)N1CCN(c2ccccc2F)CC1)c1ccc2c(c1)OCCO2 (stereo unspecified)	7.8	-5.6	3.4%	-1.2	3.7

New compounds follow
SMILES	Arbovirus inh	YopH PTP inh	Mtb growth	Mtb bLac sens	RecA splice inh	others
C=CCOC(=O)C1=C[C@@H](c2coc3ccccc3c2=O)[C@H](CCCO)[C@@H](OCC)O1	2.1	·	2.6%	-3.8	-0.5
NC(=O)CN1CC(c2ccccc2)CC1=O (stereo unspecified)	5.4	-12.6	-8.8%	7.6	-1.9	Arbovirus inh repeat=3.4
Cc1occc1-c1nnc(SCC(=O)c2ccc(Cl)cc2)n1CC1CCCO1 (stereo unspecified)	-3.5	-26.1	-6.4%	-1.2	4.7
CCn1c(C)nc2cc(C(=O)NNC(=S)Nc3ccc(OC)cc3)ccc21	12.1	·	0.7%	-1.9	1.2
CCC(NC(=O)c1cc(COc2cncc(Cl)c2)on1)c1ccncc1 (stereo unspecified)	·	·	·	-3.2	-2.7
O=C(NC(=S)Nc1ccc(Cc2ccncc2)cc1)c1ccccc1F	-21.7	·	0.8%	-9.1	·
CC(=O)NC1=NN(C(C)=O)C2(S1)C(=O)N(CC(C)C)c1ccc(C)cc12 (stereo unspecified)	·	·	0.9%	-10.2	-0.9
O=C(NC1CCCC1)C(c1ccc(Cl)cc1)N(Cc1ccc(F)cc1)C(=O)CCl (stereo unspecified)	0.2	-11.3	8.1%	-1.0	67.1*
COc1cccc(NC(=O)Cn2nnc(C(=O)NCCc3ccccc3)c2N)c1	·	·	·	5.5	0.5
COc1ccc(Sc2ncnc3onc(C)c23)cc1	-11.8	·	5.3%	-1.7	10.6

The list is partial, so the mix of outcomes need not match the whole.
